Assay outcomes from PubChem.
VDR inh = vitamin D3 receptor (human) inhibition | P11473 | VDR-SRC2-3 peptide fluorescence polarization, 2 h | Potency, µM, for inactives: max response, negative = inhibition, hits mostly inhibitors | 400,000 tested, 0.93% active | AID 504847; active means well fitted inhibition curve with a large enough effect; inconclusive means small, poorly fitted or top-dose-only effect, or another doubt; inactive means no such curve, though single readings can be large or run the other way; further: series mostly up to about 120 µM
Target sequence (P11473 whole entry, looked up): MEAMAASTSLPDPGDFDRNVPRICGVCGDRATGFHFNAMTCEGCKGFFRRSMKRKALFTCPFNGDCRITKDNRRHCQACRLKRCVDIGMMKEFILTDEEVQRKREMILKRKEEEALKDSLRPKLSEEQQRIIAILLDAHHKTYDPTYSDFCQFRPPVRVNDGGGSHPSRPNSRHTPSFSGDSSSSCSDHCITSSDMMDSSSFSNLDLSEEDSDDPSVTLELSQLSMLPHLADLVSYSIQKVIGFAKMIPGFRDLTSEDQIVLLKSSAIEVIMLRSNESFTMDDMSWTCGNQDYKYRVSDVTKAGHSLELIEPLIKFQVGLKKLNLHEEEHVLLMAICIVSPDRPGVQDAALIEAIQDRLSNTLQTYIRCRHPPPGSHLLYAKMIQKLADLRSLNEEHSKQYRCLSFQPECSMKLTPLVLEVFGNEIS
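VDR–SRC2-3 interaction, FP format. Cmpds 23 nl via pintool, brief spin, 2 h ambient incubation.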
Numbers without * were called inactive; u = inconclusive; & = joins results of further samples; [ ] = dose if it differs, or a comment. On the % scale 0 is the no-effect control and ±100 the full control effect; potency means the concentration at half of the fitted maximal effect. A portion of the library; count on the stated rates, not on these rows.

VDR inh	SMILES
-5.1%	Cc1ccc(NC(=O)CN2C(=O)CSc3ccc(S(=O)(=O)N4CCCCC4)cc32)cc1
6.8%	COc1ccc(C(=O)NCc2ccc3c(c2)CCN3C(=O)c2cccc(C)c2)cc1OC
-3.7%	N#Cc1cccc(NC(=O)CSc2nnc(C3CC3)n2C2CC2)c1
6.1%	CC(=O)Cc1nsc(NC(=O)c2ccc(-c3ccc(Cl)c(C(F)(F)F)c3)o2)n1
-13.5%	CC1=NN2C(=N)/C(=C\c3cc(C)n(-c4cccc(C)c4)c3C)C(=O)N=C2S1
-22.8%	CCN(CC)c1ccc(NC(=O)c2nc3nc(C)cc(C(F)F)n3n2)cc1
13.8%	COc1ccc(C(=O)N/N=C(\C)CC(=O)Nc2ccc(N(C)C)cc2)c(OC)c1
10.3%	COc1ccc(C(=O)CC(c2ccccc2)C2C(=O)CCCC2=O)cc1 (centres undefined)
4.1%	Cc1ccc(N(C(=O)c2cccc(C)c2)S(=O)(=O)c2ccc(Cl)cc2)cc1
22.7%	CCOC(=O)c1[nH]c(C)c(CCC(=O)NC(C)c2ccccc2)c1C (centres undefined)
4.2%	CC1=CC(C)(C)n2c(O)c(N=NC(N)=S)c3cc(C)cc1c32
19.3%	C=CCn1cc(/C=N/N2C(=O)C3C4C=CC(C4)C3C2=O)c2ccccc21 (centres undefined)
-11.6%	CCc1noc(C)c1C(=O)Nc1nc2ccc(S(C)(=O)=O)cc2s1
0.4%	O=C1NC(=O)c2cc(NC(=O)C3CCCO3)ccc21 (centres undefined)
3.3%	CCOC(=O)NC(O)C(=O)c1ccc(F)cc1 (centres undefined)
-16.0%	COc1ccc(/C=N/OCC(=O)OCC(=O)N(C)c2ccccc2)cc1
-21.1%	Cc1nn(-c2ccccc2)nc1CNC(=O)C(C)Cc1ccccc1 (centres undefined)
18.0%	O=C(CSc1ncccc1C(=O)O)NCCC1=CCCCC1
-10.4%	CC[C@@]1(C(=O)OC)N[C@H](CN(C)S(=O)(=O)c2ccc(OC(F)(F)F)cc2)[C@@H]2C(=O)N(C)C(=O)[C@@H]21
21.9%	CCCN1CCC2(CC1)C(C#N)=C(N)Oc1c2sc2nc(C)cc(C)c12
-9.3%	O=C(Nc1nnc(Cc2ccccc2)s1)Nc1ccccc1F
-2.4%	COc1ccc(C(=O)N/N=C(\C)CC(=O)Nc2cccc(C(F)(F)F)c2)cc1
-1.1%	COc1ccc(C2C3=C(CC(c4ccco4)CC3=O)Nc3ccccc3N2C(C)=O)cc1 (centres undefined)
-1.4%	O=C(Nc1ccc2nc(SCCOc3ccccc3Cl)sc2c1)c1ccc2c(c1)OCO2
17.1%	Cc1ccc(/C=C/c2onc(C)c2S(=O)(=O)N2CCC(C(=O)NCc3ccc(Cl)cc3)CC2)cc1
-2.9%	Cc1nc(N)sc1-c1ccccc1
12.1%	Cc1cccnc1CN1CCN(Cc2nc(C(c3ccccc3)c3ccccc3)no2)CC1
-27.1%	C=C(C)CSc1nc2c(c(=O)[nH]c(=O)n2C)n1CCC(C)C
11.3%	CC(NC(=O)CCc1ccc(S(=O)(=O)NC2CCCCC2)cc1)c1ccccc1 (centres undefined)
4.4%	Cc1c(Cl)cccc1-n1ncc(C(=O)NC2CCCC2)c1C1CCN(C(=O)OC(C)(C)C)CC1
-4.2%	COc1ccc(S(=O)(=O)N2CCC(C(=O)NC3CC3)CC2)cc1OC
-17.3%&3.0%	COc1ccc(C(CCN2CCCCC2)c2c(OC)cc(OC)c3c(-c4ccccc4)cc(=O)oc23)cc1 (centres undefined)
-23.4%	COc1ccc(S(=O)(=O)N2CCOCC2)cc1NC(=O)c1cccc2c(=O)c(C)c(-c3ccccc3)oc12
4.2%	CC(C)c1ccccc1NC(=O)C(Cc1c[nH]c2ccccc12)NC(=O)OC(C)(C)C (centres undefined)
-1.8%	CCCc1cc(=O)[nH]c(SC(CC)C(=O)Nc2ccccc2C#N)n1 (centres undefined)
1.0%	Cc1nc(Cl)c(S(N)(=O)=O)c(C)c1Cl
-19.9%	O=C(O)c1ccccc1-c1ccccc1C(=O)Nc1ccccc1
-26.7%	COc1cc2c(cc1OC)C(C1C(=O)CCCC1=O)N(C(=O)CCl)CC2 (centres undefined)
-3.9%	Cn1c(SCc2ccccc2Cl)nc2ccccc21
u	O=C(NC(=S)Nc1cccc(F)c1)c1cccc([N+](=O)[O-])c1
-1.2%	COc1ccc(/C=C2\SC(=S)N(CCCC(=O)Nc3ccc(C(=O)O)cc3)C2=O)cc1OC
24.3%	CC(=O)Nc1ccc(S(=O)(=O)N2CCC(N3CCCCC3)CC2)cc1
2.2%	C[C@H](CO)N1C[C@H](C)[C@@H](CN(C)CC2CCCCC2)Oc2ccc(NC(=O)CCN3CCOCC3)cc2C1=O
20.7%	Cc1cc(C(=O)COC(=O)CCc2nc3ccccc3s2)c(C)n1C
-10.0%	Fc1ccc(CSc2ccc(-c3cccs3)nn2)cc1
5.7%	CCOc1ccccc1NC(=O)c1cc2c(=O)oc3ccccc3c2s1
9.8%	CC(C)CN1CCN(Cc2ccc(CN3CCCCC3)s2)CC1CCO (centres undefined)
-0.5%	CCOc1ccc(NC(=O)c2cc(S(=O)(=O)N3CCCC3)c[nH]2)cc1
-10.6%	COC(=O)Cc1c(C)c2ccc(OCC(=O)N(C)C)cc2oc1=O
-3.1%	CN(C)c1ccc(CNc2ncn[nH]2)cc1

(list continues)
VDR inh	SMILES
9.3%	O=C(NCc1ccco1)c1ccc(CS(=O)Cc2cccc(Cl)c2)o1 (centres undefined)
13.5%	CCc1ccc(-c2cc(C)no2)cc1S(=O)(=O)Nc1cccc(CN2CCCC2)c1
-13.2%	COC(=O)c1cc(NC(=O)CSc2ncn[nH]2)ccc1Cl
-8.9%	O=C(CSc1ncnc2c1oc1ccccc12)Nc1nccs1
6.8%	O=C(NCc1ccco1)C1CC(c2ccc(Cl)cc2)=NO1 (centres undefined)
5.8%	COc1ccc(C(=O)CSc2nnc(Cc3ccccc3)o2)cc1
1.9%	Cc1nccn1CC(=O)O
-10.4%	CC(C)=C1C(=O)NN(c2cccc(Cl)c2)C1=O
6.0%	CCC(C)NC(=O)C1CCN(C(=O)N(C)C)CC1 (centres undefined)
1.4%	CC(OC(=O)C1COc2ccccc2O1)C(=O)N(C)c1ccccc1 (centres undefined)
-20.8%	COc1ccc(OC)c2[nH]c(C(=O)O)cc12
-17.0%	CC(C)CCn1c(SCC(=O)Nc2ccccc2C(F)(F)F)nc2nccnc2c1=O
-11.9%	O=C(NC1CCCCC1)C1CC(=O)N(CCc2ccccc2)C1 (centres undefined)
-1.5%	CCOc1ccc(-c2nc(N)nc(C)c2-c2ccc(OC)c(OC)c2)c(O)c1
-2.4%	CCCCOCCCNC(=O)N[C@H](C(=O)O)C(C)CC (some centres undefined)
-5.8%	Cc1c(NS(=O)(=O)CC23CCC(CC2=O)C3(C)C)c(=O)n(-c2ccccc2)n1C (centres undefined)
14.1µM*	CC1=C(SCc2ccccc2)C(=O)c2ccccc2C1=O
-1.7%	CCc1cccc(NC(=O)CCNS(=O)(=O)c2ccc3[nH]c(=O)oc3c2)c1
-9.4%	COc1cc2cc(C)c(Br)c(OC)c2cc1OC
1.0%	Cc1[nH]c(=S)sc1Cc1ccc(F)cc1
-5.8%	Cc1cc(=O)oc2cc(NC(=O)c3ccccc3C(=O)O)ccc12
7.1%	Cc1cc(NC(=O)CSc2nnc(Nc3ccccc3F)s2)no1
-8.7%	O=C(Cc1ccccc1)Nc1cc(Cl)ccc1Sc1ccccc1
9.7%	O=C(O)c1ccccc1C(=O)c1cccs1
10.1%	CC1CCN(C(=O)Cn2ncc3c4ccccc4n(Cc4ccc(Cl)cc4)c3c2=O)CC1
1.6%	CCCCS/C(N)=N/N=C/c1cc(C)ccc1O
-6.8%	C(=C\c1ccccc1)/CNn1cnnc1
4.7%	COc1ccc(NC(=O)C(=S)NC2CCCCC2)cc1
-3.7%	O=C(C1CCN(S(=O)(=O)c2cccc3nsnc23)CC1)N1CCCCC1
-2.0%	CCc1ccc(S(=O)(=O)Nc2ccccn2)cc1
4.4%	Cc1cc(N2CCN(c3ccc(F)cc3)CC2)n2ncnc2n1
-5.0%	COc1cc(/C=N/N2CCN(Cc3ccc(Cl)cc3)CC2)cc(Br)c1O
u	Cc1ccc(NCCC(=O)c2cccs2)cc1C
-6.9%	Cc1ccccc1C(=O)NC(C)C1CC2CCC1C2 (centres undefined)
9.8%	O=C(CCc1ccccc1)Nc1cc2c3c(c1)CC(=O)N3CCC2
-0.7%	CCN1CCN(c2ccc(S(=O)(=O)N3CCOCC3)cc2NC(=O)c2ccccc2SC)CC1
5.2%	COC(=O)CN1C(=O)COc2ccc(S(=O)(=O)NCc3ccc(F)cc3)cc21
-14.3%	COCCNC(=S)N(CCc1c(C)[nH]c2ccc(Cl)cc12)Cc1cccs1
9.6%	COc1cccc(CNC(=O)CN(C)S(=O)(=O)c2ccc3[nH]c4c(c3c2)CCCC4)c1
7.8%	Cn1c(SCC(=O)NNC(=O)c2ccccc2O)nnc1-c1ccccc1
1.2%	COc1cc(-c2cc(C(F)(F)F)n3ncc(C(=O)O)c3n2)cc(OC)c1OC
-8.1%	COc1cc(OC)c(C(=O)CCC(=O)O)cc1OC
6.9%	CCCC(=O)N=c1sc2cccc(F)c2n1C
-5.7%	COc1ccc(-c2nnc3ccc(SCC(=O)Nc4nc5ccc(C)cc5s4)nn23)cc1OC
-2.1%	c1cncc(CNc2ncncc2-c2cccnc2)c1
4.2%	Cc1ccccc1OCC(=O)Nc1ccccc1C(=O)OCc1cc(=O)n2nc(C3CC3)sc2n1
3.3%	CCOC(=O)/C(C)=N/NC(=O)c1cccc([N+](=O)[O-])c1
-8.9%	O=C1CN(C(=O)CSc2nnc3ccccn23)c2ccccc2N1
-5.5%	CN1CCC=C(C(=O)N2c3ccccc3Sc3ccc(Cl)cc32)C1
-9.3%	Cc1cccc(NC(=O)CN2CCOCC2)c1C

Nothing new here: an excerpt of the list.
VDR inh	SMILES
-1.5%	CCOc1ccc(-c2nc(N)nc(C)c2-c2ccc(OC)c(OC)c2)c(O)c1
-2.4%	CCCCOCCCNC(=O)N[C@H](C(=O)O)C(C)CC (some centres undefined)
-5.8%	Cc1c(NS(=O)(=O)CC23CCC(CC2=O)C3(C)C)c(=O)n(-c2ccccc2)n1C (centres undefined)
14.1µM*	CC1=C(SCc2ccccc2)C(=O)c2ccccc2C1=O
-1.7%	CCc1cccc(NC(=O)CCNS(=O)(=O)c2ccc3[nH]c(=O)oc3c2)c1
-9.4%	COc1cc2cc(C)c(Br)c(OC)c2cc1OC
1.0%	Cc1[nH]c(=S)sc1Cc1ccc(F)cc1
-5.8%	Cc1cc(=O)oc2cc(NC(=O)c3ccccc3C(=O)O)ccc12
7.1%	Cc1cc(NC(=O)CSc2nnc(Nc3ccccc3F)s2)no1
-8.7%	O=C(Cc1ccccc1)Nc1cc(Cl)ccc1Sc1ccccc1
9.7%	O=C(O)c1ccccc1C(=O)c1cccs1
10.1%	CC1CCN(C(=O)Cn2ncc3c4ccccc4n(Cc4ccc(Cl)cc4)c3c2=O)CC1
1.6%	CCCCS/C(N)=N/N=C/c1cc(C)ccc1O
-6.8%	C(=C\c1ccccc1)/CNn1cnnc1
4.7%	COc1ccc(NC(=O)C(=S)NC2CCCCC2)cc1
-3.7%	O=C(C1CCN(S(=O)(=O)c2cccc3nsnc23)CC1)N1CCCCC1

Reprinted at random: 2 records from the list.
VDR inh	SMILES
3.3%	CCOC(=O)/C(C)=N/NC(=O)c1cccc([N+](=O)[O-])c1
9.6%	COc1cccc(CNC(=O)CN(C)S(=O)(=O)c2ccc3[nH]c4c(c3c2)CCCC4)c1

Following part
VDR inh	SMILES
10.3%	Cc1cccc(NS(=O)(=O)c2cccc(C(=O)NCc3ccccc3CN3CCOCC3)c2)c1
1.3%	OCC1(Cc2cccc(Cl)c2)CCCN(Cc2ccc3cc(F)ccc3n2)C1 (centres undefined)
u	CSc1nc(N(C)CCO)c2sc3nc(-c4ccco4)c4c(c3c2n1)CCC4
-1.7%	CCc1nc2ccc(C(=O)Nc3nnc(C)s3)cc2nc1CC
-9.5%	O=C(NN=C1CCCCC1)c1ccccc1OCc1ccc(F)cc1
-14.7%	CCN(CC)C(=O)C1CCCN(c2ccc([N+](=O)[O-])cc2/C=N/NC(=O)c2ccc([N+](=O)[O-])cc2)C1 (centres undefined)
3.1%	CCCCOc1ccc(C(=O)Nn2cnnc2)cc1
-18.3%	Cc1nn(Cc2ccccc2)c(Cl)c1/C=C/C(=O)OCC(=O)NC(C)C(C)C (centres undefined)
-29.8%	COC(=O)c1ccc(C(=O)OC)c(NC(=O)CSc2cccc[n+]2[O-])c1
-21.4%	CCOc1ccc2[nH]c(=O)c(CN(Cc3ccco3)C(=O)c3ccc(Br)cc3)cc2c1
17.7%	Cc1ccc2nc(-c3ccc(SCC(=O)Nc4cc(C)on4)nc3)[nH]c2c1
1.1%	Cc1nnc(SCC(=O)NC2CC2)s1
14.3%	O=C(NCC(c1cccnc1)N1CCN(Cc2ccccc2)CC1)C(=O)Nc1ccc(F)cc1 (centres undefined)
35.6%[activator]	CCN(CC)c1ccc(S(=O)(=O)N2CCOCC2)cc1NC(=O)CNCc1cccc(Cl)c1
17.8µM*	CC(C)C[C@H](N)c1nnc(S(=O)(=O)Cc2cccc(F)c2)o1
-1.4%	O=C(CSc1nnc(NC(=O)c2cccc(F)c2)s1)NC1CC1
-18.0%	O=C(CN1C(=O)NC2(CCc3ccccc32)C1=O)NCc1ccc(F)cc1 (centres undefined)
1.0%	COc1cc(C(=O)OCCNC(=O)c2ccncc2)cc(OC)c1OC
-14.4%	CCOc1c(Cl)cc(CNCc2ccccn2)cc1OC
11.6%	COc1c(Cl)cccc1-c1cn2ccccc2n1
-23.7%	COc1ccccc1C(=O)Nc1ccc(NC(=O)c2cccs2)cc1
-10.9%	COc1ccc(/C(=N/OC(C)=O)c2nccc3cc(OC)c(OC)cc23)cc1OC
